Compound activity from PubChem.
Mtb bLac sens: beta-lactam sensitization of Mtb H37Rv; M. tuberculosis H37Rv growth with meropenem, percent inhibition; hits of this screen are not shown here; inhibition, % at 25 µM; hit rate 0.27% among 330,000; AID 434955;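 active means about 74% or more and at least 40 points above the plate without the antibiotic, then above 30% in a dose series; inconclusive means first-round hits that could not be retested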;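 further: growth measured after seven days incubation then overnight dye step; 0% = bacteria only wells and 100% = bacteria with antibiotic; twin plates without the antibiotic show which effects depend on it; some results filed as inactive read as strong as hits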
Arbovirus inh: arbovirus infection inhibition | arbovirus infection cell-based antiviral screen | inhibition, % at 10 µM | AID 1251 | hit rate 0.37% among 200,000;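 active means inhibition from about 30%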;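 further: bluetongue infection of BSR cells; cell survival read as ATP light after 72 h; 0% = infected wells without compound and 100% = uninfected wells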
YopH PTP inh: inhibitors of Yersinia enterocolitica YopH tyrosine phosphatase; fluorescence Ex485/Em525; inhibition, %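 (about 10 µM by stock and volumes)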; hit rate 0.16% among 140,000; AID 898;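 active means inhibition of 50% or more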;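 further: controls were vehicle for no effect and minimum signal wells for full effect; inactives centre near -20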
Mtb growth: M. tuberculosis H37Rv growth inhibitors, H37Rv strain (AID 1626); M. tuberculosis H37Rv growth inhibition; higher % means a stronger effect; one-dose inhibition, % at 10 µM; IC50 in µM for titrated hits; hit rate 0.95% among 220,000;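 active means confirmed in a dose series; inconclusive means inhibition above 80% but not taken into the dose series; inactive means below 80% or under 30% at every dose of the series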;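 further: bacteria incubated seven days before Alamar blue readout; 0% = bacteria only wells and 100% = bacteria with antibiotic wells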
RecA splice inh: Mtb RecA intein splicing inhibition | P9WHJ3 | cell-free RecA intein splicing, fluorescence | inhibition, %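 (about 9 µM by stock and volumes)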 | hit rate 0.75% among 290,000 | AID 2221; in the data active means inhibition above about 30%; inconclusive means no clear call, values can overlap the other calls;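 further: 0% = vehicle wells and 100% = reference inhibitor control wells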
Target sequence (P9WHJ3 whole entry, looked up, canonical isoform): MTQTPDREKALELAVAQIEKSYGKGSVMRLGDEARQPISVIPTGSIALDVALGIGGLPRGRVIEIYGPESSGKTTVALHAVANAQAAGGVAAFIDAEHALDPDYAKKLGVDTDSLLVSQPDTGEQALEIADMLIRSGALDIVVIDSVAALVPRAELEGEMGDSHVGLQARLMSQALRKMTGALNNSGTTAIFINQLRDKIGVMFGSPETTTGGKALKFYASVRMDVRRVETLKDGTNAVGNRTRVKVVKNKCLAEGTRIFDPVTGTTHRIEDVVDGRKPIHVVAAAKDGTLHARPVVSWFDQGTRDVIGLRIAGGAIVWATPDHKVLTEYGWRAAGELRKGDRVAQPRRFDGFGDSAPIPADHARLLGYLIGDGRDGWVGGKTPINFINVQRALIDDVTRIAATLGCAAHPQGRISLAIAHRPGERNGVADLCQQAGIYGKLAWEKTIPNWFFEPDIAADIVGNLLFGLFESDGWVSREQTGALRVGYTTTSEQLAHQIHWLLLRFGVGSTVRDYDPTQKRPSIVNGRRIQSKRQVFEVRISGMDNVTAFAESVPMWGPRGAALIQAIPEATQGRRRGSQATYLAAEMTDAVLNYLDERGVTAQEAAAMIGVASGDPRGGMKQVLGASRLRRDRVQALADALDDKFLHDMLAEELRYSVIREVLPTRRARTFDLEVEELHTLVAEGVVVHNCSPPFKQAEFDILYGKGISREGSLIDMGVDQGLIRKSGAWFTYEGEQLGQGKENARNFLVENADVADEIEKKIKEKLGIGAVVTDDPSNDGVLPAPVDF
Arbovirus inh repeat: also measured in Arbovirus inh; calls as there; inhibition, %; measured here: 10K subset replicate screen; many hits read low in the repeat;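 first of two repeat runs on a subset; 0% = infected and 100% = uninfected wells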
Numbers without * were called inactive; ? = inconclusive; · = not tested or not shown.

SMILES	Mtb bLac sens	Arbovirus inh	YopH PTP inh	Mtb growth	RecA splice inh	others
O=C(Nc1ccc(OC(F)(F)F)cc1)c1n[nH]c(Cn2cncn2)n1	5	-3	-39	-7%	-5.3
CC(C)(C)c1cc(C(=O)NNc2cccc(Cl)c2)n(Cc2ccccc2)n1	99	·	·	?	12
Cc1ccc(-n2nnnc2SCC(=O)NCCC2=CCCCC2)c(C)c1	-3	-13	-16	-5%	3.5
Cc1c(C#N)c2ncn(CC#N)c(=O)c2n1-c1ccccc1	5	-4	-20	13%	2.6
Clc1ccccc1OCCN1CCCCC1	7	-1	-6	-11%	-2.8	Arbovirus inh repeat=-3
COc1ccccc1C(=O)NNC(=O)c1cccc(Br)c1	0	·	·	·	1.2
COc1cc(-c2noc(CCC(=O)NC3CCCCC3)n2)cc(OC)c1OC	-5	·	·	·	7.4
Cc1cc(C)cc(N(CC(=O)NC2CCCCC2)C(=O)CCCC(=O)Nc2ccccn2)c1	-16	·	·	·	2.3
Cc1[nH]c2ccccc2c1CCNS(=O)(=O)c1ccc(S(N)(=O)=O)cc1	6	·	·	·	-1.2
CCCCNC(=O)c1c(C)cc(=O)oc1C	-2	7	-34	4%	0.5
CN=C(Nc1ccc(C(=O)OC)s1)c1ccccc1	0	-1	·	-12%	-0.2
COC(=O)Cc1c(C(=O)OC)nnn1-c1cccc(C(F)(F)F)c1	-4	7	·	·	2.0
COc1cccc(NC(=O)c2ccccc2C(F)(F)F)c1	0	-1	·	4%	1.6
O=C(Cc1cccs1)Nc1ccon1	-5	-3	2	-6%	1.7
CCOc1cc(/C=N/NC(=O)C(=O)NCc2ccc3c(c2)OCO3)ccc1OCC(=O)N1CCOCC1	4	·	·	·	2.6
COC(=O)c1ccc(-n2nnnc2SCC(=O)Nc2cc(OC)ccc2OC)cc1	2	4	-32	3%	2.1
CC(=O)c1ccc2c(ccc3ccccc32)c1	8	3	20	4%	-0.7
COc1cccc2c1cc1c(=O)n(CC(=O)N3CCCCCC3)nc(C)n12	?	·	·	·	4.1
Cn1ncnc1SCc1cn2cccnc2n1	0	6	·	11%	-1.0
CC(=O)NCCC1CCN(C(=O)C2CCC(=O)N(C3CCCC3)C2)CC1 (centres undefined)	2	·	·	·	-1.8
O=[N+]([O-])c1ccc(CS(=O)(=O)c2ncn[nH]2)cc1	-3	·	·	·	-0.5
COc1ccc(-c2n[nH]c3c2CN(C(=O)c2ccc(F)cc2)CC3)cc1	-3	·	·	·	2.2
CC(C)(C)c1ccc(-c2noc(C(=O)NN)n2)cc1	47	·	·	1%	-1.0
CCCCC(=O)NC(=S)Nc1nnn(CCC)n1	72	-2	·	?	0.1
O=C(CNC(=O)c1cccc(OC(F)F)c1)OCC(=O)c1ccccc1	2	3	·	-3%	3.4

Reprinted from the part before: 7 compounds, followed by the next part.
SMILES	Mtb bLac sens	Arbovirus inh	YopH PTP inh	Mtb growth	RecA splice inh	others
Cn1ncnc1SCc1cn2cccnc2n1	0	6	·	11%	-1.0
CC(=O)NCCC1CCN(C(=O)C2CCC(=O)N(C3CCCC3)C2)CC1 (centres undefined)	2	·	·	·	-1.8
O=[N+]([O-])c1ccc(CS(=O)(=O)c2ncn[nH]2)cc1	-3	·	·	·	-0.5
COc1ccc(-c2n[nH]c3c2CN(C(=O)c2ccc(F)cc2)CC3)cc1	-3	·	·	·	2.2
CC(C)(C)c1ccc(-c2noc(C(=O)NN)n2)cc1	47	·	·	1%	-1.0
CCCCC(=O)NC(=S)Nc1nnn(CCC)n1	72	-2	·	?	0.1
O=C(CNC(=O)c1cccc(OC(F)F)c1)OCC(=O)c1ccccc1	2	3	·	-3%	3.4
O=S(=O)(c1ccc(S(=O)(=O)N2CCCN(Cc3ccccc3)C2)cc1)N1CCCCCC1	-5	-7	-21	-6%	5.3
c1ccc(-c2ccc(-c3ccncn3)cc2)cc1	6	·	·	·	1.9
CC(C)(C)OC(=O)N[C@@H](Cc1ccccc1)c1nnc(SCC(=O)c2ccc(Cl)cc2)o1	-11	23	-16	1%	0.4
O=C(c1cc(F)c(F)c(F)c1F)N1CCN(Cc2ccc3c(c2)OCO3)CC1	-7	·	·	·	-0.2
COc1ccc(NC(=O)c2nn(C34CC5CC(CC(C5)C3)C4)cc2[N+](=O)[O-])cc1	-2	5	-47	2%	2.2
CCN1CCN(C(c2cc3cccc(C)c3[nH]c2=O)c2nnnn2Cc2ccccc2)CC1 (centres undefined)	0	15	-39	-2%	-2.0
CN(C)c1nc(N)c([N+](=O)[O-])c(N2CCCCCC2)n1	-2	·	·	·	1.5
c1ccc(N2CCN(CC3CCCCC3)CC2)cc1	15	·	·	·	-1.1
CCn1ccnc1CNC(=O)CC1C(=O)NCCN1Cc1ccc(OC)cc1OC (centres undefined)	-8	·	·	4%	3.3
COc1ccc(-c2cc(C(=O)Nc3cc(C)on3)c3ccccc3n2)c(OC)c1	67	·	·	·	1.8
COc1cc2c(C(=O)N3CCN(c4ccccc4C)CC3)c(C)oc2cc1Br	78	-4	-39	23%	13
CCn1c(SCc2ccc(C)cc2)nnc1C1CCN(S(=O)(=O)c2ccc(OC)cc2)CC1	-2	4	-11	1%	-5.3
O=C(NCCc1ccccc1)C1CCCN1C(=O)Nc1ccc(F)cc1 (centres undefined)	-4	-5	-34	-6%	1.4
COc1cccc(-c2nn(C)c3sc(C(=O)NCc4ccco4)cc23)c1	2	-4	-38	3%	2.7
O=C(CCCn1c(=S)[nH]c2ccsc2c1=O)NCc1ccco1	-16	5	-29	0%	-1.9
CC(=NCC1CCCO1)c1c(O)n(-c2ccccc2C)c(=O)[nH]c1=O (centres undefined)	1	·	·	-7%	·
O=C(Nc1ccc(Br)cc1F)c1sccc1-n1cccc1	-2	-2	-16	-1%	-0.5
Nc1nc(N)c(N=Nc2ccc(Cl)cc2)c(=O)[nH]1	-6	8	·	6%	·
Cc1ccc(Cn2ncc3c(N4CCN(Cc5ccc(Cl)cc5)CC4)ncnc32)cc1	40	0	-22	·	8.5
C=CCn1c(COc2ccc(OC)cc2)nnc1SCn1nnc2ccccc2c1=O	7	-3	-22	77%	3.3
Cc1cc(C(=O)Nc2ccc(Cl)cc2)c(C)n1-c1ccccc1	12	·	·	-1%	23
CCCOC(=O)c1ccc(-[n+]2c(-c3ccccc3)cc(-c3ccccc3)cc2-c2ccccc2)cc1	100	·	·	·	20
CCCCOc1ccc(/C=C/C(=O)NC2=Nc3ccccc3NC(C)=C2C(=O)OCC)cc1OC	4	2	·	7%	-3.0
COc1ccc(OC)c(S(=O)(=O)Nc2ccc(-c3ccc4nnc(C)n4n3)cc2)c1	-2	·	·	·	2.1
Cc1noc(C)c1CSCC(=O)N(C)CC(=O)Nc1ccc(Cl)c(C(F)(F)F)c1	2	·	·	·	-1.1
Other results:
SMILES	Mtb bLac sens	Arbovirus inh	YopH PTP inh	Mtb growth	RecA splice inh	others
Cc1sc(-c2ccncc2)nc1OC(=O)c1ccc(Cl)cc1	-7	4	8	-20%	6.5
O=C(O)/C=C/c1cccc(NC(=O)c2ccccc2)c1	-4	·	·	3%	2.0
CSc1nsc(SCC(=O)Nc2ccc(Cl)c(C(=O)O)c2)n1	3	·	·	·	-0.2
Cc1ccccc1C(=O)NC1CCN(Cc2nnnn2C2CCCC2)CC1	2	2	2	-15%	1.0
CCNc1nc(NCC)n2c(SCC(=O)NC34CC5CC(CC(C5)C3)C4)nnc2n1	-2	2	-42	0%	-2.2
Cc1cnc(C)c(N2CCN(C(=O)C3CCC(=O)N(CCc4cccc(F)c4)C3)CC2)n1 (centres undefined)	-8	·	·	·	-1.3
COCCCN1CN(Cc2ccccc2)CNC1=S	-4	0	-15	-3%	-1.0
O=C(O)c1cccc(-c2nnn(Cc3ccccc3Cl)n2)c1	0	8	-16	-3%	2.5
COc1ccc(/C=C2\SC(=O)N(CCNC(=O)Cn3cnnn3)C2=O)cc1	3	4	3	3%	6.3
O=C(c1ccccc1)N(Cc1nc2ccccc2c(=O)[nH]1)C1CCCC1	-3	2	·	-7%	1.5
O=C(CSc1nc(C2CC2)nc2ccccc12)Nc1ccc2c(c1)OCCO2	12	3	-42	-11%	1.7
Nc1nnnn1/N=C/c1cccc(O)c1	-5	4	-27	·	-3.9
CNC(=S)NC12CC3CC(CC(C3)C1)C2	-5	15	·	3%	3.5
O=C(NC(=S)Nc1ccc(Br)cc1)C1CCCCC1	-4	·	·	·	-0.2
Cc1cccnc1NC(=O)Cn1nc(C)c([N+](=O)[O-])c1C	-10	4	12	3%	-1.4
O=C(NCCc1ccccn1)c1cccc(S(=O)(=O)N2CCc3ccccc32)c1	-2	5	·	-4%	-0.1
COc1ccccc1-n1c(-c2ccco2)n[nH]c1=S	3	·	·	·	-1.0
CCc1ccccc1N1C(=O)c2cccc3c(N4CCOCC4)c([N+](=O)[O-])cc(c23)C1=O	89	-33	-25	8%	-9.6
COc1cc(C2C3C(=O)N(Cc4ccccc4)C(=O)C3ON2c2ccccc2)cc(OC)c1O (centres undefined)	-2	2	-29	0%	-22
Cc1ccc(Nc2nnc(SCC(=O)Nc3ccc(S(=O)(=O)N4CCOCC4)cc3)s2)cc1	17	1	-13	-6%	-0.5
O=S(=O)(/N=S1/CC=CCN1S(=O)(=O)c1ccccc1)c1ccccc1 (centres undefined)	-13	-2	3	-2%	-0.8
Nc1nc2n(n1)C(c1ccco1)CC(c1ccc(F)cc1)N2 (centres undefined)	-7	-1	-33	-3%	0.5	Arbovirus inh repeat=11
N#Cc1cc2c(nc1SCc1ccncc1)CCC2	7	-7	-26	-1%	3.8
Cc1ccc(/C=N\NC(=O)Cn2nnc3ccccc32)o1	16	3	-11	-2%	2.9
CCc1cc(=O)oc2c(CN3CCN(C)CC3)c(O)c(Cl)cc12	?	13	8	-1%	-121

Quoted at random: 2 entries already listed.
SMILES	Mtb bLac sens	Arbovirus inh	YopH PTP inh	Mtb growth	RecA splice inh	others
CCNc1nc(NCC)n2c(SCC(=O)NC34CC5CC(CC(C5)C3)C4)nnc2n1	-2	2	-42	0%	-2.2
O=C(O)/C=C/c1cccc(NC(=O)c2ccccc2)c1	-4	·	·	3%	2.0

Next section:
SMILES	Mtb bLac sens	Arbovirus inh	YopH PTP inh	Mtb growth	RecA splice inh	others
O=C(Nc1cccc(OCC(=O)N2CCOCC2)c1)C1CCCCC1	·	8	6	-5%	-0.6
Cc1cccc(-n2c(-c3ccc([N+](=O)[O-])cc3)nc3ccccc3c2=O)c1	1	1	-26	0%	-3.0
CCOc1ccc(-n2c(SCC(=O)O)nc3sc4c(c3c2=O)CCCC4)cc1	-8	·	·	·	1.8
COC(=O)c1ccc(/C=N/NC(=O)C(=O)NCc2ccccc2)cc1	1	-9	·	0%	·
CCc1ccc(S(=O)(=O)NCc2csc(C)n2)s1	3	6	3	8%	-0.8
CCc1cc2cc(C(=O)N3CCN(c4ccccc4)CC3)sc2s1	-5	-1	-23	3%	-2.0
CSc1nc(-c2ccccc2)nc(NC(=O)C(C)C)c1C(C)=O	13	16	·	8%	-1.7
Cc1cc(C(=O)CSc2nnc(-c3ccc(Cl)cc3)n2C)c(C)n1CC1CCCO1 (centres undefined)	-5	-5	4	-6%	1.9
O=C(COC(=O)c1ccccc1O)Nc1cccc(S(=O)(=O)NC2=NCCCCC2)c1	-9	·	·	-7%	1.6
CCOC(=O)C1CCCN(C(=O)C(=O)c2cn(CC(=O)N3CCOCC3)c3ccccc23)C1 (centres undefined)	-12	·	·	·	0.9
Nc1nnc(SC2CC(=O)N(c3ccccc3)C2=O)s1 (centres undefined)	52	-4	-15	-11%	6.3
Cc1cc(C)c(S(=O)(=O)NCC2CCC(C(=O)N3CCC4(CC3)OCCO4)CC2)c(C)c1 (centres undefined)	-1	-5	5	-1%	0.7
COc1cc(C(=O)Nc2ccc(S(=O)(=O)Nc3cnc4ccccc4n3)cc2)cc(OC)c1OC	-3	·	·	·	2.1
CC(C)N1CCC(N2CCN(C3CCCCC3)CC2CCO)CC1 (centres undefined)	-3	-4	·	-4%	-1.8
Cc1ccc(C(=O)N2CCN(c3ccccc3)CC2)cc1S(=O)(=O)N1CCCC1	-11	2	-12	0%	-1.4
CC(=O)Nc1ccc2nc(NC(=O)c3cccnc3)sc2c1	1	1	·	-4%	1.0
COC(=O)[C@@H]1CC[C@@](C)(c2ccc(OC)cc2)C1(C)C	11	·	·	·	1.3
CC(C)C(=O)Nc1ccc(NC(=O)c2ccco2)cn1	-4	4	-16	1%	2.1
O=C(NCCc1ccc(Cl)cc1)C1CC(=O)N(CCc2ccccc2)C1 (centres undefined)	-1	·	·	·	1.4
CN(c1cccc(Cl)c1)S(=O)(=O)c1cccc(C(=O)Nc2ccc3c(c2)CCC3)c1	23	-14	-38	12%	9.0
CCCN1CCC(NC(=S)Nc2ccc(C(=O)OCC)cc2)CC1	2	2	-20	7%	-6.6

The list is partial. The share of hits here may be higher or lower than overall.
